Screening results (PubChem)
TRPML1 ag = human mucolipin-1 channel agonism. 410,000 tested, 0.12% active. activation, % (test concentration not listed). Q9GZU1. TRPML1-expressing cells, Ca2+ dye fluorescence, FDSS; host cell line not named in the record; reference of the full effect not given here; in the data active = activation above about 50%; inconclusive = about 30% to 50%; inactive = below about 30%; also: 0% is about no effect; the text of the record puts the active cut at 80%
Target sequence (Q9GZU1 whole entry, looked up): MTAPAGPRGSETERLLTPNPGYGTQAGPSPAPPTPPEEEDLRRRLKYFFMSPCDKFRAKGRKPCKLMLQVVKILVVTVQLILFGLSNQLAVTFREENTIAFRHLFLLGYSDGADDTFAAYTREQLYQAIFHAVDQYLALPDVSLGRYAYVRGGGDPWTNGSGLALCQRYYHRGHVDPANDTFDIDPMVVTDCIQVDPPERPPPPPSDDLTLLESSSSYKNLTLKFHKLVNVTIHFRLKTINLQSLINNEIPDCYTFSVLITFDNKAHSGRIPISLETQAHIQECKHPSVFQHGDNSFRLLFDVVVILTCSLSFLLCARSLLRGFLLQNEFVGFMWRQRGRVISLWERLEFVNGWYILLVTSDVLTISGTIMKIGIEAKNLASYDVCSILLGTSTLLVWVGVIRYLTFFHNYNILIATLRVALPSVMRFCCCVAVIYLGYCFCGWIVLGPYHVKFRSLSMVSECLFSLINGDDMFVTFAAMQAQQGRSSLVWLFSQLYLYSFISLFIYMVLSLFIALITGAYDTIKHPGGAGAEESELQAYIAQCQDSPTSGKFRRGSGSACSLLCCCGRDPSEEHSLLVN
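Tet-induced TRPML1-DL cells, 1,500 per well, cultured overnight, were loaded with a no-wash Ca2+ dye for 45–90 min. Calcium fluorescence was recorded on the FDSS for 110 s after compound addition, before the EC80 agonist (4 uM 54-4) was added.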
Six1-Eya2 blk = inhibitors of human Six1/Eya2 interaction | Q15475+O00167 | AlphaScreen GST-Six1/His-Eya2 binding, biochemical; hits give low values; control for the full effect not named in the record | activity change, % (test concentration not listed) | 360,000 tested, 0.56% active | AID 651725; in the data active = activity change below about -65%; inconclusive = about -30% to -65%; inactive = above about -30%; also: % is scaled to controls: 0 for no effect and ±100 for the full control effect; compound concentration not given in the record
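Homogeneous AlphaScreen proximity assay pairing GST-Six1 with His-tagged Eya2 (added as 5X mix: 250 nM and 500 nM) in 50 mM Tris pH 8.0, 300 mM NaCl, 1 mM TCEP. Glutathione donor and nickel acceptor beads; 1 h, 37 °C, dark.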
D2 PAM = potentiates the human D2 dopamine receptor allosterically; P14416; DiscoveRx D2 beta-arrestin cells, luminescence, 90 min; 100% = 57 uM dopamine signal; potentiation, % (no concentration beside the values); 360,000 tested, 0.23% active; AID 624464; active = potentiation of 50% or more; inconclusive = 30% to 50%; inactive = 30% or less;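 also: compound concentration not given in the record; tested on top of an EC20 dose of dopamine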
Target sequence (P14416 whole entry, looked up): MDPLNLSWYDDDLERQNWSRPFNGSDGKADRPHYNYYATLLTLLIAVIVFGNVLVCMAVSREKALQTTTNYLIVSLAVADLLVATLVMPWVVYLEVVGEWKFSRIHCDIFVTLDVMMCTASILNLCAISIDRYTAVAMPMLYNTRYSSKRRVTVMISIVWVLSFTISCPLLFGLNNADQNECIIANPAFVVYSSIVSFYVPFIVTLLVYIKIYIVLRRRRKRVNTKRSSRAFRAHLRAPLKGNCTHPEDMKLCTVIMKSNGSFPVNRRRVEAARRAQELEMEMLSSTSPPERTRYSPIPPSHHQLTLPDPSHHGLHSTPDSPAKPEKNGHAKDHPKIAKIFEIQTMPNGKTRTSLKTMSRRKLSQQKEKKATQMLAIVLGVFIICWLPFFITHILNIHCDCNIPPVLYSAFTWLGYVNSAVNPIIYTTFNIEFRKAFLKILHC
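PathHunter beta-arrestin assay in DiscoveRx D2 cells. Compounds were added with an EC20 of dopamine (50 nM final) for 90 min at 37 deg C. Luminescence was read 1 h after detection reagent, with 57 uM dopamine as the EC100 control.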
CtBP-E1A blk = inhibitors of CtBP/E1A interaction. activity change, % (no concentration beside the values). AlphaScreen GST-E1A/His-CtBP binding, 1536-well; hits give low values; control for the full effect not named in the record. 340,000 tested, 0.49% active; in the data active means activity change below about -65%; inconclusive means about -30% to -65%; inactive means above about -30%; also: % is scaled to controls: 0 for no effect and ±100 for the full control effect; compound concentration not given in the record
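In 5 uL wells, 23 nL compound meets equimolar GST-E1A and His-CtBP (5X stock 125 nM each) for 2 h, 37 °C. Beads (5X, 50 ug/mL) then 1 h, 37 °C, dark.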
D2 ag = activates the human D2 dopamine receptor. activation, % (concentration not given with the values). P14416. 360,000 tested, 0.084% active. DiscoveRx PathHunter D2 beta-arrestin, luminescence, 90 min; 100% = 57 uM dopamine signal; in the data active = activation above about 40%; inconclusive = about 15% to 40%; inactive = below about 15%; also: compound concentration not given in the record; the text of the record calls up to 30% inactive
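DiscoveRx PathHunter D2 beta-arrestin cells (2,100/well) attached overnight, then compound-stimulated 90 min at 37 C in HBSS/10 mM HEPES/0.1% Tween-20 buffer; beta-galactosidase complementation read by luminescence after 1 h at ambient temperature. Dopamine 57 uM final (EC100) as control.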
PINK1 modulator = PINK1 expression modulation; PINK1 immunofluorescence, high-content cytometry, 24 h; Potency, µM (doses to about 76.6 µM), without a hit: top-dose activation (PINK1 increase), usual class: activators; 410,000 tested, 0.2% active; active = well fitted activation curve with a large enough effect; inconclusive = small, poorly fitted or top-dose-only effect; inactive = flat fitted curve, though single readings scatter; cell line not stated here;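 also: potency is read from the fitted curve at half-maximal effect; % of control where 0% means no effect; nearly all actives have a fitted effect of over 65% in size; a mitochondrial uncoupler was the plate control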
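PINK1 protein level read as immunofluorescence by microplate cytometer in a fixed, stained stable cell line after 24 h exposure to five compound concentrations, with CCCP as control.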
The depositor's hits bear a star; ? = inconclusive; . = no result given; & = joins results of further samples; [ ] = remark or other dose.

Start of the data: the first 2 entries, to show the layout:
SMILES | TRPML1 ag | Six1-Eya2 blk | D2 PAM | CtBP-E1A blk | D2 ag | PINK1 modulator
Cc1cc2cc(CCNC(=O)c3ccc(S(=O)(=O)N4CCOCC4)cc3)c(=O)[nH]c2cc1C | 0.2 | -6 | 2 | 6 | -1.2 | 1.0%
COc1ccc(C(=O)N2CCC(C)(C(=O)O)C2)c(OC)c1 (stereo not drawn) | -0.4 | 4 | -5 | 10 | -5.8 | 0.0%

Main list, from the start:
SMILES | TRPML1 ag | Six1-Eya2 blk | D2 PAM | CtBP-E1A blk | D2 ag | PINK1 modulator
Cc1cc2cc(CCNC(=O)c3ccc(S(=O)(=O)N4CCOCC4)cc3)c(=O)[nH]c2cc1C | 0.2 | -6 | 2 | 6 | -1.2 | 1.0%
COc1ccc(C(=O)N2CCC(C)(C(=O)O)C2)c(OC)c1 (stereo not drawn) | -0.4 | 4 | -5 | 10 | -5.8 | 0.0%
COc1ccc(N2CCN(c3ccc(N4C(=O)COCC4=O)cc3[N+](=O)[O-])CC2)cc1 | 0.3 | -6 | -11 | -9 | 1.8 | 2.3%
NCCSC1CC(=O)N(c2ccc(F)cc2)C1=O (stereo not drawn) | -0.5 | 4 | 2 | 1 | 0.6 | -1.4%
Fc1ccc(NC(=S)NCc2ccccn2)cc1 | -0.2 | 12 | 7 | 2 | -0.7 | -1.0%
CCOc1ccc(-c2nnc3sc(COc4ccc(Cl)cc4)nn23)cc1 | 0.9 | 0 | 0 | 7 | -3.2 | 6.0%
COc1cccc(C(=O)NC2CC3CCCC(C2)N3Cc2ccc(F)cc2)c1 (stereo not drawn) | 0.2 | -3 | -22 | 0 | -1.0 | 3.4%
Cc1cccc(CN2C(=O)N/C(=C/c3cc(C)n(-c4ccccn4)c3C)C2=O)c1 | -0.6 | -5 | -1 | -10 | -0.3 | 5.4%
CC[C@]12c3[nH]c4ccc(OC)cc4c3CCN1C(=O)C(CC(=O)NC/C=C(\C)CCC=C(C)C)C[C@@H]2C(=O)N1CCN(C(=O)C2CC2)CC1 (stereo partly drawn) | -0.7 | -14 | -13 | 0 | -2.6 | 4.7%
CCCc1ccc(OCCNC(=O)C2CCCCC2)cc1 | -0.9 | 2 | 2 | 4 | 2.5 | 0.5%
C=CC[C@H](CC(=O)N(CCO)Cc1ccccc1)C(=O)N[C@H](COC(=O)[C@@H](CC=C)CC(=O)OC(C)(C)C)Cc1ccccc1 | 0.8 | 17 | -4 | 23 | 1.7 | 16%
COc1ccc(N=C2S/C(=C\c3ccc(C)s3)C(=O)N2CC(C)C)cc1 | 1.6 | 2 | 14 | -2 | -1.8 | 12%
CC(=O)N1N=C(c2ccc3nccnc3c2)CC1c1ccccc1 (stereo not drawn) | 0.2 | 2 | -15 | 0 | -4.0 | 0.0%[38.3 µM]
CCOc1ccc(-c2ccc(SCC)nn2)cc1 | 1.0 | -3 | -2 | -4 | 1.3 | 1.5%
CN(C1CCCCC1)S(=O)(=O)c1cccc(C(=O)OCC(=O)NC2CCCc3ccccc32)c1 (stereo not drawn) | 1.7 | 1 | 1 | -6 | -0.2 | -0.6%
O=C(c1ccc(F)cc1)N1CCC(C(=O)N2CCN(S(=O)(=O)c3cccc(Cl)c3)CC2)CC1 | -0.9 | -1 | 9 | 5 | -1.8 | 3.0%
Cc1ccn2c(C(=O)c3ccc(Cl)cc3)cnc2c1 | -0.7 | 5 | 0 | 1 | -3.9 | -1.0%
O=C(N/N=C/c1ccco1)c1cc(Br)ccc1OCc1ccccc1 | 5.0 | -1 | -7 | 2 | 3.1 | 7.9%
CC1CC(C)CN(C(=O)CSc2nnc(-c3ccco3)o2)C1 (stereo not drawn) | -0.7 | -2 | 4 | 8 | -4.8 | -0.5%
O=C(NCC(=O)N(Cc1cccs1)C(C(=O)NC1CCCCC1)c1cccnc1)c1ccco1 (stereo not drawn) | -1.1 | 2 | -8 | -1 | -1.7 | 4.3%
COCCNC(=O)C(c1cccs1)N(Cc1cccs1)C(=O)Cn1nnc2ccccc21 (stereo not drawn) | -1.3 | 1 | -2 | 5 | -2.0 | -1.3%
Cc1cc(C)nc(SCc2nnc(SCc3ccccc3Cl)o2)n1 | 5.1 | 13 | 9 | 14 | 0.3 | -1.4%
COc1ccc(C2/C(=C(/O)c3ccc(C)cc3)C(=O)C(=O)N2CC2CCCO2)cc1OC (stereo not drawn) | -0.3 | 0 | -4 | 2 | 1.8 | 2.0%
CCCCOc1ccc(CSC(=N)N)cc1[N+](=O)[O-] | 3.3 | 24 | -24 | 7 | 3.1 | ?

Laid out differently: three of the compounds above.
Cc1cc(C)nc(SCc2nnc(SCc3ccccc3Cl)o2)n1
  TRPML1 ag = 5.1; Six1-Eya2 blk = 13; D2 PAM = 9; CtBP-E1A blk = 14; D2 ag = 0.3; PINK1 modulator = -1.4%
COc1ccc(C2/C(=C(/O)c3ccc(C)cc3)C(=O)C(=O)N2CC2CCCO2)cc1OC (stereo not drawn)
  TRPML1 ag = -0.3; Six1-Eya2 blk = 0; D2 PAM = -4; CtBP-E1A blk = 2; D2 ag = 1.8; PINK1 modulator = 2.0%
CCCCOc1ccc(CSC(=N)N)cc1[N+](=O)[O-]
  TRPML1 ag = 3.3; Six1-Eya2 blk = 24; D2 PAM = -24; CtBP-E1A blk = 7; D2 ag = 3.1; PINK1 modulator = ?

Next part.
SMILES | TRPML1 ag | Six1-Eya2 blk | D2 PAM | CtBP-E1A blk | D2 ag | PINK1 modulator
CC(=O)Oc1c(C)cc(Cl)cc1C(=O)Nc1ccc([N+](=O)[O-])cc1Cl | 6.4 | 0 | 0 | 11 | -1.5 | ?
CC(Sc1ccc(S(=O)(=O)N2CCCC2)cn1)C(N)=O (stereo not drawn) | 0.7 | 4 | 0 | 9 | -0.4 | 4.5%
Cc1ccc(C)c(NC(=O)CSc2ccc(-c3cccs3)nn2)c1 | -0.4 | 1 | -1 | -2 | -7.2 | 9.3%
CC(C)(C)C(=O)Nc1ccc2c(c1)OCCOCCOc1cc(NC(=O)C(C)(C)C)ccc1OCCOCCO2 | 0.2 | 2 | -2 | 5 | 2.3 | 1.7%
Oc1ccc(C2CNCc3sccc32)cc1O (stereo not drawn) | -0.4 | -14 | 71* | 2 | 63* | 1.7%
Cc1ccc(C2(C)NC(=O)N(CC(=O)NNC(=O)c3ccccc3F)C2=O)cc1 (stereo not drawn) | 0.3 | -13 | ? | -15 | -0.2 | -2.7%
Cc1cccc(C)c1Nc1nnc(SCC(=O)Nc2sccc2C#N)s1 | 0.4 | -19 | -4 | -17 | -2.3 | 0.4%
CCOC(=O)c1ccc(-n2nc(C)cc2C)cc1 | -0.5 | -1 | -13 | . | -3.1 | 2.0%
C/C=C(/C)C(=O)O[C@@H]1c2c(ccc3ccc(=O)oc23)O[C@@H]1C(C)(C)OC(C)=O | 0.3 | 0 | -5 | . | -3.1 | 0.7%
OC1(C#Cc2c(-c3ccsc3)oc3ccc(N4CCOCC4)cc23)CCCCC1 | -0.5 | -6 | -14 | -3 | -3.3 | 15%
COc1ccc(NC(=O)CN(C)C(=O)CCCc2c[nH]c3ccccc23)cc1 | 0.4 | -20 | -16 | -2 | 0.4 | -1.3%
COc1cccc(CNC(=O)c2nnn(CC(=O)Nc3cc(Cl)ccc3C)c2N)c1 | 0.0&0.1 | 0 | -39 | 0 | -4.8 | ?
O=C(NCc1ccc(F)cc1)c1cc(C2CCCN(C(=O)c3ccc4c(c3)CCO4)C2)on1 (stereo not drawn) | -0.6 | -1 | -6 | 2 | 3.0 | 1.8%
COc1ccc(C(C)(O)c2nc(-c3cccc(F)c3)cs2)cc1 (stereo not drawn) | -0.4 | 28 | -4 | 2 | -2.0 | 7.1%
CCC(C)[C@H](NC(=O)[C@@H]1CSC2c3ccccc3C(=O)N21)C(=O)NCC1CCCO1 (stereo partly drawn) | -0.7 | 0 | -10 | -3 | -1.7 | 0.0%
COCCNC(=O)C1CCCN(Cc2cccc(C#N)c2)CC1 (stereo not drawn) | -0.5 | -1 | -5 | 1 | 4.8 | 2.4%
NC(=S)N=Nc1c(O)n(Cc2ccc(F)cc2)c2ccccc12 | 0.8 | -5 | -4 | 3 | -1.0 | 2.5%
O=C(/C=C/c1ccccc1)NNc1ccc(Cl)cc1 | 0.2 | 1 | -11 | 11 | -6.0 | -1.4%
CCOc1ccc(N2CC(C(=O)Nc3nnc(Cc4ccc(OC)c(OC)c4)s3)CC2=O)cc1 (stereo not drawn) | -1.0 | 2 | 0 | -2 | -1.0 | -1.8%
CN(C)CCCn1c(SCC(=O)Nc2nc(-c3cccc(Br)c3)cs2)nc2ccccc2c1=O | 1.0 | -5 | -4 | -16 | 0.8 | -3.4%
CC(C)c1nnc(NC(=O)c2nc(S(=O)(=O)Cc3ccc(F)cc3)ncc2Cl)s1 | 0.6 | 18 | -5 | -3 | -0.5 | -2.2%
COc1ccc(NC(=O)c2cc(-c3ccco3)on2)cc1 | -0.2 | 1 | -5 | 0 | -1.3 | -1.5%
COc1ccc(Nc2nc(C)nc3c2nnn3Cc2ccccc2Cl)c(OC)c1 | 0.7 | 0 | -2 | 9 | -2.0 | 3.7%
CC(C)c1ccc(-n2cnn(-c3ncccc3[N+](=O)[O-])c2=O)cc1 | -1.8 | -2 | -8 | 0 | 1.9 | -0.1%
O=C(Nc1ccc2c(c1)OCCO2)c1ccc(Br)cc1 | 0.9 | 5 | -7 | -2 | -3.9 | 3.8%
Cc1ccc(C(=O)N2CCCC2(C)C(=O)NCC(C)C)cc1F (stereo not drawn) | -0.9 | 6 | -3 | 3 | -3.3 | 2.6%
COC(=O)c1sc(NC(=O)c2ccc([N+](=O)[O-])o2)c(C#N)c1C | 0.3 | -1 | -15 | -10 | -4.7 | ?
O=C(CCNS(=O)(=O)c1ccc2c(c1)CCC(=O)N2)Nc1ccc2c(c1)OCCO2 | -0.5 | 0 | -4 | 2 | -2.9 | 0.2%
O=C(Nc1cccc(C(F)(F)F)c1)C1(c2ccccc2)CC1 | 0.5 | 20 | -15 | 5 | 1.2 | 3.0%
Cc1ccc(NC(=O)N2CCc3ccccc3C2)c(C)c1 | -0.4 | -1 | -3 | 1 | -6.8 | 0.8%
COc1ccc(CCNC(=O)c2ccc(COc3ccccc3OC)o2)cc1 | 2.3 | 4 | -15 | . | -8.6 | 4.5%
CC(=O)Nc1ccc(SCC(=O)NC(=O)c2ccc(Cl)cc2)cc1 | -0.1 | 0 | -15 | -9 | -0.3 | 3.3%
COc1ccc(N(CC(O)Cn2nnc3ccccc32)S(=O)(=O)c2ccc(C)cc2)cc1 (stereo not drawn) | 1.6 | -4 | -6 | 0 | -0.5 | 16%[38.3 µM]
O=C(Nc1cccc2c1C(=O)NC2=O)c1ccccc1[N+](=O)[O-] | . | -1 | -3 | 4 | -5.2 | 3.7%
COc1ccc(C(=O)c2ccc3oc(-c4ccc(OC)cc4)c(-c4ccc(O)cc4)c3c2)cc1 | -0.3 | -2 | -5 | 2 | 3.1 | ?
CCc1nnc(NS(=O)(=O)c2ccc(N3C(=O)C4CC=C(Cl)CC4C3=O)cc2)s1 (stereo not drawn) | -0.6 | 0 | 4 | 9 | -0.9 | 0.9%
